# Bioassay records (PubChem)
# miR-21 reporter = raises the signal of a miR-21 reporter | HeLa miR-21 FLuc reporter, luciferase, 48 h | Potency, µM (highest dose often 38.3 µM), inactives show at the top dose reporter change, positive = more light | 340,000 tested, under 10 active | AID 2288; active = well fitted rising curve with a large enough effect; inconclusive = small, poorly fitted or top-dose-only effect; inactive = no such curve, though single readings can be large or run the other way;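 further: % of control where 0% means no effect; miR-21 action dims this reporter so a rising signal means less miR-21 action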
#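 Compounds were titrated across several concentrations (up to approximately 40 uM) and incubated 48 hours with HeLa miR-21-FLuc reporter cells (miR-21 target sequence downstream of FLuc, endogenous miR-21). Readout was firefly luciferase luminescence after lytic detection reagent.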
# Rango dissoc inh = inhibition of RanGTP-driven Rango-importin beta dissociation; Potency, µM (doses to about 46.1 µM), for inactives: top-dose activity change, negative = inhibition; hit rate 0.071% among 340,000; Biochemical FRET Rango-importin beta, RanGTP-induced dissociation; O95149+P62826; active means falling FRET ratio curve, often poorly fitted, with flat reads before Ran was added; inconclusive means other falling curves, or compound fluorescence or quenching; inactive means flat or rising ratio curve;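 further: potency means the concentration at half of the fitted maximal effect; % of control where 0% means no effect; nearly all actives have a fitted effect of over 45% in size; -100% = wells without RanGTP and RCC1; the record marks most hits as doubtful in a second field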
#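 FRET read at 45 min, room temperature: inhibitors block the CFP/YFP signal rise when RanGTP (0.6 uM Ran, 2 mM GTP, 0.2 uM RCC1) frees Rango (0.1 uM) from importin beta (0.25 uM). Pre-read after 5 min compound exposure flags interference.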
# Rango complex inh = inhibitors of Rango-importin beta complex formation. Q14974. Rango CFP/YFP FRET sensor + importin beta, 45 min. Potency, µM (top dose mostly 92.2 µM), for inactives: top-dose inhibition of complex formation. hit rate 0.031% among 340,000. AID 540263; active = rising FRET ratio curve, often small or poorly fitted; inconclusive = mostly compound fluorescence or quenching in the first reads; inactive = flat curves in all reads;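 further: potency means the concentration at half of the fitted maximal effect; 0% = DMSO wells and 100% = buffer wells lacking importin beta; nearly all actives have a fitted effect of over 15% in size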
# Target sequence (Q14974 whole entry, looked up): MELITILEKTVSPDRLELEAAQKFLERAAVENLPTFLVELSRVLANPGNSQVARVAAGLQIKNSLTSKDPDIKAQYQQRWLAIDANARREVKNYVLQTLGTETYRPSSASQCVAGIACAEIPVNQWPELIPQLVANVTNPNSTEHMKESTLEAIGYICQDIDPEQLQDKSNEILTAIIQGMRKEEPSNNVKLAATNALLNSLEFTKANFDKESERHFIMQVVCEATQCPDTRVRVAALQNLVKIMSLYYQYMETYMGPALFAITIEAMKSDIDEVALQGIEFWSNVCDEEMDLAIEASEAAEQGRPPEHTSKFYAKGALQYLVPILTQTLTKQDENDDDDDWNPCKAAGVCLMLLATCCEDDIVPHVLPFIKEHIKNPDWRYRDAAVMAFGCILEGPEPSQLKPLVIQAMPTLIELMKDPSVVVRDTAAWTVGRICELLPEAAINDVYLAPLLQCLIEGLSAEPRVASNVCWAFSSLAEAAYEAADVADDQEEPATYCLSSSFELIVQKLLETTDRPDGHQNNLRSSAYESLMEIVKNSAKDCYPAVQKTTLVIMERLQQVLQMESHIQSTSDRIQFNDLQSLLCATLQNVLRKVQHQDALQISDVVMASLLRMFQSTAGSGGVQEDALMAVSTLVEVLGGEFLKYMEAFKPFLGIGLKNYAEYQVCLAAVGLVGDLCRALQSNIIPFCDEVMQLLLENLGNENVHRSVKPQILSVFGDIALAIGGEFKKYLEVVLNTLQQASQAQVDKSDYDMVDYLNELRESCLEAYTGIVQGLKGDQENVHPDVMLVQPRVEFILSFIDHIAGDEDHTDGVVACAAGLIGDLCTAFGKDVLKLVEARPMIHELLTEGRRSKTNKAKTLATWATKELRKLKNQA
#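 FRET biosensor (snurportin 1 IBB flanked by EYFP and cerulean), 50 nM, with compound 5 min, then 0.125 microM importin beta in PBS, 1 mM DTT, 0.02% Tween-20, 0.1% BSA. CFP/YFP ratio read after 45 min at room temperature; pre-read flags interference.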
# GLA inh pH 4.5 = alpha-galactosidase A (human) inhibition, pH 4.5; purified enzyme, 4-MU-alpha-Gal fluorescence, pH 4.5; activity change, negative = inhibition, % at 105 µM; 230,000 tested, under 10 active; AID 1467; inconclusive = small, poorly fitted or top-dose-only inhibition, or a rising curve; inactive = flat fitted curve, though single readings scatter; no compound was filed as active;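 further: 0% = full activity with enzyme and -100% = basal without enzyme; dose as in the result columns while the protocol names 77 µM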
# * = called active by the depositor; u = inconclusive; x = not tested or not shown; [ ] = remark or other dose. This is a subset; count on the stated rates, not on these rows.
SMILES,miR-21 reporter,Rango dissoc inh,Rango complex inh,GLA inh pH 4.5
Cc1ccc2c(C(=O)CN3CCN(c4ccccc4)CC3)c(C)[nH]c2c1,-6%,3%,-1.5%,6
Cc1cccc(OCC(=O)NNC(=O)c2ccc3nc[nH]c3c2)c1,x,2%,0.7%,x
COc1ccc(C(=O)Nc2cc3c(cc2C(=O)O)OCCCO3)c(OC)c1,-9%,2%,-2.6%,x
C=CCNC(=S)N/N=C/c1ccc(-c2cc(Cl)ccc2Cl)o1,5%,-26%,u,4
NC(=O)c1nn(Cc2ccccc2)c(=O)c2ccccc12,-8%,-7%,2.8%,x
CCCCNc1c(-c2ccc(SC3CCCCC3)c(OC)c2)nc2ccc(C)cn12,x,7.3µM*,u,x
Cn1cc(S(=O)(=O)Nc2ccc(F)c(Cl)c2)c(=O)n(C)c1=O,-2%,40%,0.7%,x
CC(C)CC(=O)Nc1ccc(N2CCN(S(C)(=O)=O)CC2)cc1,-5%,26%,-5.9%,9
CCOC(=O)C1(Cc2ccccc2C)CCCN(Cc2ccc(NC(C)=O)cc2)C1 (stereo not given),5%,6%,-5.0%,-6
Cc1ccc(S(=O)(=O)N(C)c2ccccc2C(=O)Nc2ccc3c(c2)OCCO3)cc1,-5%,-16%,2.2%,-4
Cc1ccc(C(=O)N/C(=C\c2cn(C)c3ccccc23)C(=O)NCCCN2CCOCC2)cc1,-2%,0%,5.4%,x
O=C(NC(=S)Nc1cccc(Cl)c1N1CCCC1)c1ccc(-c2cccc([N+](=O)[O-])c2)o1,-8%,-19%,1.5%,-13
COc1ccc2c(=O)c(C(=O)NCc3ccccc3)c[nH]c2c1,-4%,5%,0.0%,x
CCC(C(=O)c1ccccc1)N(C(=O)c1ccccc1Cl)N1C(=O)C2C3C=CC(C3)C2C1=O (stereo not given),1%,-8%,-2.0%,-2
CCc1ccc(NC2=NCC(=O)N2c2ccc3c(c2)OCCO3)cc1,-4%,26%,-1.3%,-5
COc1ccc(C2(C)NC(=O)N(CC(=O)NCc3ccccc3)C2=O)cc1OC (stereo not given),-2%,1%,0.2%,x
CCC(CC)c1nnc(NC(=O)Oc2ccccc2)s1,0%,28%,4.0%,-4
COc1ccc(NC(=O)c2cn(-c3ccccc3)nc2SC)cc1,-24%,15%,0.1%,-5
O=C(CN1CCN(S(=O)(=O)c2ccc(F)cc2)CC1)Nc1ccc2c(c1)OCCO2,7%,-7%,-0.1%,5
COc1ccc(NS(=O)(=O)c2ccc(O)c(C(=O)OCC(=O)NC(C)C3CC4CCC3C4)c2)cc1 (stereo not given),-7%,-5%,-6.0%,-4
NC(=O)COc1ccc(/C=C2\C(=O)ON=C2c2ccccc2)cc1,x,-6%,0.3%,x
O=C(O)/C=C/C(=O)N1CCN(c2ccc(F)cc2)CC1,-7%,12%,-1.3%,3
COc1ccc(C(=O)NCCCc2nc3ccccc3n2Cc2cc(C)ccc2C)cc1OC,-16%,29%,-0.1%,-5
COc1ccc(C(c2c(C)[nH][nH]c2=O)c2c(C)[nH][nH]c2=O)cc1Br,3%,1%,3.6%,x
O=c1nc(SCc2ccccc2Cl)nc(-c2ccc(Cl)cc2)[nH]1,1%,7%,4.6%,9
COc1cc(NC(=S)N2CCN(C(c3ccccc3)c3ccccc3)CC2)cc(OC)c1,-1%,-2%,-1.9%,0
CCC(=O)Nc1ccc(Nc2nc(Cl)nc(Nc3ccc(NC(=O)CC)cc3)n2)cc1,5%,7%,1.0%,0
COc1ccccc1N(C(=O)c1snc(C(N)=O)c1N)C(C(=O)NC1CCCC1)c1ccco1 (stereo not given),-6%,-5%,-4.8%,9
COc1cccc(C(C)=C2SC(=S)NC2=O)c1,x,2%,4.1%,x
CCn1c(SCC(=O)N2CCCCC2C)nc2c1c(=O)n(C)c(=O)n2C (stereo not given),-1%,20%,-2.5%,x
Cc1nc(CNC(=O)CC2C(=O)NCCN2Cc2ccc(F)cc2)cs1 (stereo not given),-1%,-22%,u,x
COc1ccccc1NS(=O)(=O)c1cccc(NC(=O)CCNC(=O)c2ccccc2OC)c1,x,u,2.8%,x
Cc1cccc(C)c1NC(=S)/N=C/N(C)C,-2%,9%,-2.3%,8
COC(=O)c1ccccc1S(=O)c1snnc1C (stereo not given),-3%,-5%,-0.8%,3
CCN(CC)c1nc(Nc2ccccc2)nc(Oc2ccc(=O)n(C)n2)n1,2%,3%,3.3%,2
COc1ccc(CCNCC2C(Oc3ccc(Cl)cc3)C(=O)N2c2ccccc2C)cc1OC (stereo not given),26%,-10%,u,-8
CCc1c(C(=O)N/N=C/c2ccc(C)o2)csc1C,-7%,27%,-2.4%,-3
Cc1noc(C)c1S(=O)(=O)Nc1ccc(C(=O)N2CCN(c3ccc(Cl)cc3)CC2)cc1,-4%,2%,-1.0%,-5
O=C(CCS(=O)(=O)c1ccc(Br)cc1)Nc1ccc2c(c1)OCO2,-27%,-13%,-4.1%,1
Cc1ccc(C)c(NC(=O)c2ccccc2Sc2ccc([N+](=O)[O-])cc2Cl)c1,-4%,-13%,0.3%,-3
C=C1Cn2c(nnc2-c2ccc(Cl)cc2)S1,-12%,-15%,-0.2%,4
CCOC(=O)CSc1nc2ccccc2c(=O)n1CC1COc2ccccc2O1 (stereo not given),-6%,-1%,-0.1%,5
CN(C)C(=O)NC(NC(=S)Nc1ccccc1)C(Cl)(Cl)Cl (stereo not given),-15%,4%,-1.5%,3[21.1 µM]
O=c1cc(-c2ccccc2)c2ccccc2[nH]1,-16%,-1%,2.2%,-3
COCCn1c(SCC(=O)Nc2cccc(NC(C)=O)c2)nc2c([nH]c3ccccc32)c1=O,6%,6%,-0.3%,x
NS(=O)(=O)c1ccc(N/N=C/c2cn(-c3ccccc3)nc2-c2cccs2)c([N+](=O)[O-])c1,-14%,-7%,4.8%,8
Cc1c(C(=O)Nc2c(F)cccc2F)sc2ncn(CC(=O)N3CCCCC3)c(=O)c12,2%,0%,1.9%,x
CC(=O)C1=C(c2ccccc2)NC(=O)NC1c1ccc2c(c1)OCO2 (stereo not given),-1%,7%,4.7%,x
Cc1c(NC(=O)c2ccccc2N)cccc1C(=O)O,-39%,-8%,-7.7%,5
O=C(Nc1ccc(F)cc1)c1ccc(Cn2cnnn2)cc1,-22%,1%,4.9%,-5
CCCCCn1c(SCC(=O)c2ccccc2)nc2cc(C(=O)NCc3ccco3)ccc2c1=O,0%,8%,2.4%,7
Cc1ccccc1NC(=O)CCN1C(=O)c2ccccc2C1=O,-2%,2%,1.4%,x
CSc1nc(O)c(C(c2ccccc2)c2c(O)nc(SC)[nH]c2=O)c(=O)[nH]1,0%,-5%,-2.8%,x
CCCOc1ccc(CNC(=S)NCc2ccc(OC(C)C)cc2)cc1,-7%,15%,-3.2%,14
Cc1ccccc1NC(=O)N1CCCN(c2ccc(C#N)cn2)CC1,-3%,-6%,2.6%,x
CCCOc1ccc(N2CC(C(=O)NCCc3ccc(OC)c(OC)c3)CC2=O)cc1 (stereo not given),22%,4%,-2.7%,-16
CCOc1ccc(N2C(=O)CC(SC(=NC)Nc3cccc(F)c3)C2=O)cc1 (stereo not given),-3%,-7%,1.0%,3
COc1ccc(Nc2nc(C)cc(=O)[nH]2)cc1,-3%,-9%,5.1%,0
CCOCCCNC(=O)CN1C(=O)COc2ccc(S(=O)(=O)N3CC(C)CC(C)C3)cc21 (stereo not given),0%,-3%,-0.7%,x
CCCCN1C(=S)NC[C@@H]1Cc1ccc(O)cc1,0%,-4%,0.0%,5

# Going on with the list:
SMILES,miR-21 reporter,Rango dissoc inh,Rango complex inh,GLA inh pH 4.5
Cc1c(-c2cc(C(=O)O)c3ccccc3n2)cnn1C,0%,1%,-4.6%,1
Nc1[nH]n2c(=O)cc(-c3ccccc3)nc2c1N=Nc1ccc(S(N)(=O)=O)cc1,-1%,-1%,u,-26
CC1(C)OCC(C2CC(c3ccccc3)NS(=O)(=O)O2)O1 (stereo not given),-5%,9%,2.5%,x
CN(C)CCOCCOc1ccc(Cl)cc1Br,-15%,0%,-0.2%,-8
CCCNC(=O)C1(CC2CC(c3ccccc3)=NO2)CCNCC1 (stereo not given),x,-7%,-0.9%,x
CC(C)(C)N(Cc1ccccc1)C(=O)c1cc2ccccc2o1,0%,2%,-1.4%,x
CCOc1ccccc1C(=O)N1CCN=C1SC,0%,9%,-1.2%,-6
COc1ccccc1C(=O)Nc1ccc2c(c1)nc1n2CCN(C2CCCCC2)C1,-24%,-20%,-0.2%,x
CC(C)n1nc(C(=O)NCCCN2CCCC2=O)c2ccccc2c1=O,2%,11%,-1.3%,x
CCn1nnc(-c2ccccc2NS(=O)(=O)c2ccc(C(=O)OC)cc2)n1,18%,-13%,-1.1%,3
NS(=O)(=O)c1cccc(NC(=O)CC2(CC(=O)O)CCCC2)c1,0%,-8%,0.2%,x
COC(=O)c1nc(-c2ccc(C)cc2)oc1N(C)C,-16%,2%,2.3%,10
Cc1ccc(S(=O)(=O)N2CCOCC2)cc1NC(=O)COC(=O)Cc1cccs1,x,16%,1.6%,x
O=C(NCc1ccco1)c1cnn2c(C(F)(F)F)cc(-c3cccs3)nc12,-1%,u,u,-2
CCCn1c(SCC(=O)Nc2cc(Cl)ccc2Cl)n[nH]c1=O,5%,-4%,4.1%,-5
COc1cc([N+](=O)[O-])c(N2CCOCC2)c([N+](=O)[O-])c1OC,0%,0%,4.8%,-15
Cc1nc(N2N=C(c3ccc(Cl)cc3)CC2c2ccco2)sc1C(=O)N(C)C (stereo not given),-27%,u,u,6
CC1CCc2nn(CC(=O)Nc3ccc(F)cc3F)cc2C1 (stereo not given),-16%,-25%,0.4%,7
COc1ccc2[nH]c3c(c2c1)CCN1C(=O)N([C@@H](C)C(=O)NC2CCN(Cc4ccccc4)CC2)C(=O)[C@]31C,5%,-11%,u,x
O=C(/C=C/c1ccco1)NCC1CCCO1 (stereo not given),-9%,-5%,0.3%,-4
O=c1[nH]c2cc3c(cc2cc1C(c1nnnn1Cc1ccccc1)N1CCN2CCCC2C1)OCCO3 (stereo not given),-2%,u,u,9
O=C(NC1CCCc2ccccc21)C1CCN(S(=O)(=O)c2ccccc2)CC1 (stereo not given),-7%,u,-5.7%,-2
Nc1nc(-c2cccc(Br)c2)cs1,-48%,22%,0.5%,-7
CCCCNC(=O)c1onc(CSc2ccc(F)cc2)c1C(=O)NCCCC,4%,1%,-1.6%,-6
Cc1nccc(-c2sc(-c3cccs3)nc2C)n1,-47%,0%,-1.2%,u
c1cnc2ccc(C(c3nnnn3C3CCCCC3)N3CCN4CCCC4C3)cc2c1 (stereo not given),-7%,-11%,4.4%,-10
CC(=O)c1cccc(OC(=O)C2=CC=CN3CCS(=O)(=O)N=C23)c1,x,14%,0.2%,x
O=c1cc(CN2CCN(Cc3ccccc3)CC2)c2ccc(O)c(O)c2o1,-16%,32%,-2.4%,x
Cc1cc(C)c(C2=CC(=O)C[C@H](c3ccc4c(c3)OCO4)C2)c(C)c1,x,-2%,2.4%,x
CS(=O)(=O)c1nc(S(=O)(=O)c2ccc(Cl)cc2)c(N2CCC(O)CC2)s1,15%,0%,11%,x
